# Calb FLC – C. albicans growth modulation with fluconazole; C. albicans CaCi-2 (fluconazole-resistant clinical isolate) + fluconazole, Alamar Blue growth, 48 h; growth inhibition, % (test concentration not listed); 300,000 compounds, 0.57% hits;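 active = most replicates above 75%; inconclusive = exactly half above 75%; inactive = most below 75%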;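 also: all wells also contain fluconazole at 8 µg/ml as a sub-toxic cotreatment; 0% = median of DMSO wells and 100% = median of geldanamycin control wells; wells of about 8 µL received 7.5 nL stock; the first replicate is given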
# RanGTP-Impb inh – inhibitors of RanGTP-importin-beta interaction, primary screen, biochemical, FRET, CFP-Ran, YFP-importin-beta, homogeneous | inhibition, % (concentration not given with the values) | 300,000 compounds, 1.1% hits | cell-free CFP-Ran/YFP-importin-beta FRET ratio;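 active = most replicates above 15%; inconclusive = exactly half above 15%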;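 also: 0% = DMSO wells and 100% = Ran loaded with GDP instead of GTP; wells of about 40 µL received 100 nL stock; the first replicate is given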
# FGF22 binding – shifts melting point of recombinant human FGF22; Q9HCT0; recombinant FGF22 thermal shift, SYPRO orange fluorescence; percent of sucrose octasulfate shift, DMSO zero; calls only at 9.99 µM; 340,000 compounds, 1.5% hits; AID 651658;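 active = melting point raised past a set limit in the mean and every replicate; inconclusive = no clear call; three in four hits are not shown here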
# Target sequence (Q9HCT0 whole entry, looked up): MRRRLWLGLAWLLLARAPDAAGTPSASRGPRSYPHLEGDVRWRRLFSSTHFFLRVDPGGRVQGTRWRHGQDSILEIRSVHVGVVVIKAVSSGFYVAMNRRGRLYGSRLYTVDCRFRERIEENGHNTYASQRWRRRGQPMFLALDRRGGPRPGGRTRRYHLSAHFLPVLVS
# Beta apoptosis – beta cell apoptosis inhibition | INS-1E cytokine-induced death, ATP luminescence, 48 h; percent of positive-control rescue, neutral wells zero | protection from apoptosis, % (test concentration not listed) | 300,000 compounds, 0.8% hits | AID 435005;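 active = all replicates at 75% or more, or half of them and the mean; inconclusive = half reach 75% but not the mean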;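 also: 0% = cytokine-treated negative control wells and 100% = positive control rescue; higher means more ATP so stronger rescue from cytokine killing; wells of about 40 µL received 100 nL stock; the first replicate is given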
# AF4-AF9 inh – MLL-AF4/AF9 protein interaction inhibition. AID 651704. AlphaScreen, biotin-AF4 peptide binding to FLAG-AF9. 350,000 compounds, 0.47% hits. P42568. inhibition, % at 10 µM;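 active = every replicate reaching a set inhibition limit, whatever the replicate mean, cut at about 25% in these data; inconclusive = mean inhibition reaches that limit but some replicates miss it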;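 also: 0% = plate neutral control median and 100% = total signal loss; the record names both 10 and 1 µM as test concentration; the first replicate is given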
# Target sequence (P42568 whole entry, looked up): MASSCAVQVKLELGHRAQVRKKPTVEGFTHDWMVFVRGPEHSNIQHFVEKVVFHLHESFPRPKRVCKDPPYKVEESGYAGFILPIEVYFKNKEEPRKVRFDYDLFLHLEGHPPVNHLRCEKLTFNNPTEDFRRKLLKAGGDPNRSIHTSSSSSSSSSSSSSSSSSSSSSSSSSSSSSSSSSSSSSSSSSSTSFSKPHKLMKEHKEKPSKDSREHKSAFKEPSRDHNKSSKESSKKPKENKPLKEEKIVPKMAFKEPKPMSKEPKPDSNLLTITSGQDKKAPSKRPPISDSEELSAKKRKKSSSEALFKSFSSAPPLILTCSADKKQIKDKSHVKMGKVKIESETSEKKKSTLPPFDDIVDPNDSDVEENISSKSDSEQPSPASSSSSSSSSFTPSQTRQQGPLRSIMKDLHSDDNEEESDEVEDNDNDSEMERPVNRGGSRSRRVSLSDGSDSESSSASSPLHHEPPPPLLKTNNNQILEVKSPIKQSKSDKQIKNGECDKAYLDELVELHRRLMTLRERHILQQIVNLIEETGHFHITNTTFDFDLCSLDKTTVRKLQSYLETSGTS
# ALR inh – inhibitors of human sulfhydryl oxidase ALR; 290,000 compounds, 3.8% hits; AID 485317; purified ALR, DTT oxidation, H2O2 HRP-luminol luminescence; inhibition, % (test concentration not listed);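 active = mean and each replicate at 75% or more; inconclusive = only one of the two met; inactive = neither met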;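 also: stock transfer was 7.5 nL into about 7.5 µL; 0% = neutral wells and 100% = wells with inactivated enzyme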
# Target sequence (P55789 whole entry, looked up): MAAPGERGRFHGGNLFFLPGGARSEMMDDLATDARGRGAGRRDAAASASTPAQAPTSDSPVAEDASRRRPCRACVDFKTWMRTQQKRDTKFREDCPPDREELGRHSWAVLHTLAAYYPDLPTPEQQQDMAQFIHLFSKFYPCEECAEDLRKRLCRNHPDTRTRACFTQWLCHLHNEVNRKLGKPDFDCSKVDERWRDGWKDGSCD
# rRNA inh HTS – selective bacterial rRNA inhibition in E. coli. 350,000 compounds, 1.6% hits. E. coli WT GFP vs humanized-ribosome RFP mutants, fluorescence, 24 h; stronger effect = lower value; DMSO median 0, no signal -100. GFP signal change (wild-type ribosome), % (test concentration not listed);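 active = significant combined selectivity score with lowered wild-type GFP, culture density cut under 30%, mutant RFP and density less affected; inactive = any of these conditions unmet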; also: one replicate is shown; some compounds called inactive have numbers as strong as hits
# T cruzi inh – blocks replication of Trypanosoma cruzi | inhibition, % (concentration not given with the values) | 300,000 compounds, 1.4% hits | T. cruzi beta-gal in NIH3T3, luminescence, 90 h;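 active = mean inhibition across valid replicates above about 55%, limit read from the data; inconclusive = mean below that limit but half or more replicates reach it; inactive = mean below it, under half of replicates reach it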;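 also: signal also drops with host cell toxicity which is not excluded here; 0% = plate median of DMSO wells and 100% = zero luminescence signal; higher percent means less beta-gal luminescence so fewer parasites; stock transfer was 50 nL into about 50 µL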
# rRNA inh HTS OD600 – recorded beside rRNA inh HTS, whose call it bears; OD600 change, %; measured here: OD600 growth;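 optical density of the mix in the first replicate; 0 = DMSO median and -100 = no signal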
# rRNA inh HTS RFP – further read-out of rRNA inh HTS, marked with its call; RFP signal change, %; measured here: RFP humanized mutant strains;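 first replicate; 0 = DMSO median and -100 = no signal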
# * marks the source's active call; other numbers are inactive results; i = inactive; ? = inconclusive; / = not tested or not shown; & = joins results of further samples.
SMILES,Calb FLC,RanGTP-Impb inh,FGF22 binding,Beta apoptosis,AF4-AF9 inh,ALR inh,rRNA inh HTS,rRNA inh HTS OD600,rRNA inh HTS RFP,T cruzi inh
CCOc1ccccc1C(=O)Nc1nnc(C(C)C)s1,-3,-1.5,i,5,0.7,-3,1,-17,-4.8,14
O=C(OCc1nnc(-c2ccccc2)o1)c1cn(-c2ccccc2)nc1-c1ccccc1,-8,1.2,/,5,/,-2,/,/,/,16
CS/C(=N\NC(N)=O)c1ccccc1,-6,5.2,/,2,/,-5,/,/,/,-13
CN1C(=O)C(C)(C)c2cc(S(=O)(=O)N3CCC(C(=O)NCc4ccc(Cl)cc4)CC3)ccc21,-5,0.1,i,1,-0.1,-11,2,-5,-1.8,10
O=C(c1cc(-c2ccccc2O)on1)N1CCCCCC1,-20,7.1,i,6,-8.5,/,2,1,-1.0,-17
Cc1ccc(C(C(=O)NCC2CCCO2)N(C(=O)c2snc(C(N)=O)c2N)c2ccc(C)c(C)c2)o1 (stereo not drawn),2,-0.3,i,3,3.9,-6,-6,-19,3.8,9
COc1cc(/C=C2\SC(=O)N(Cc3ccc(F)cc3)C2=O)cc([N+](=O)[O-])c1O,24,-4.7,i,/,1.9,/,-15,-18,-2.2,21
Cc1cc(C)cc(NC(=O)C/C(N)=N/O)c1,0,3.8,/,0,/,2,/,/,/,-23
CCOC(=O)c1c(C)n(C)c2ccc(OC)c(NC(=O)CN3CCC(C(=O)OCC)CC3)c12,2,5.5,i,3,-1.8,-8,/,/,/,17
O=C(Nc1ccc2nc(-c3ccccn3)c(-c3ccccn3)nc2c1)N1CCOCC1,-6,20*,i,/,-0.1,-51,10,4,1.7,-4

# 4 structures out of the list, ordered by count of non-hydrogen atoms, rising:
SMILES,Calb FLC,RanGTP-Impb inh,FGF22 binding,Beta apoptosis,AF4-AF9 inh,ALR inh,rRNA inh HTS,rRNA inh HTS OD600,rRNA inh HTS RFP,T cruzi inh
CS/C(=N\NC(N)=O)c1ccccc1,-6,5.2,/,2,/,-5,/,/,/,-13
CCOc1ccccc1C(=O)Nc1nnc(C(C)C)s1,-3,-1.5,i,5,0.7,-3,1,-17,-4.8,14
O=C(c1cc(-c2ccccc2O)on1)N1CCCCCC1,-20,7.1,i,6,-8.5,/,2,1,-1.0,-17
CN1C(=O)C(C)(C)c2cc(S(=O)(=O)N3CCC(C(=O)NCc4ccc(Cl)cc4)CC3)ccc21,-5,0.1,i,1,-0.1,-11,2,-5,-1.8,10

# Going on with the list.
SMILES,Calb FLC,RanGTP-Impb inh,FGF22 binding,Beta apoptosis,AF4-AF9 inh,ALR inh,rRNA inh HTS,rRNA inh HTS OD600,rRNA inh HTS RFP,T cruzi inh
Cc1cccc(C2N(c3nccs3)C(=O)C3CCCN32)c1 (stereo not drawn),1,3.2,/,0,/,/,/,/,/,-5
Cc1cccc(/C=N/c2sc3c(c2C#N)CCN(Cc2ccccc2)C3)c1O,-3,36*,/,-12,/,2,/,/,/,-1
O=S(=O)(Nc1ccccc1Cl)c1ccc(F)cc1,-25,?,/,1,/,-3,/,/,/,-7
O=C(c1cccc([N+](=O)[O-])c1)c1ccc2c(c1)OCCOCCOCCOCCO2,3,1.4,i,-1,?,-5,8,10,-2.8,13
CCn1c(CCn2c3ccccc3c3ccccc32)n[nH]c1=S,11,0.8,/,2,/,88*,/,/,/,-9
CCOc1ccc(C(=O)C(C)OC(=O)c2cnc(C)cn2)cc1 (stereo not drawn),1,0.6,/,-2,1.0,-1,8,3,-0.1,8
O=C(c1cc2nc(-c3ccco3)cc(C(F)(F)F)n2n1)N1CCCc2ccccc21,-1,1.4,/,4,/,-1,/,/,/,25
CN(C)C(CNC(=O)CSc1nnc(-c2ccco2)o1)c1ccccc1 (stereo not drawn),4,1.0,/,-5,/,0,/,/,/,0
CC1CN(CC(=O)NCc2ccccc2)CC(C)O1 (stereo not drawn),0,6.3,/,5,0.8,7,3,17,0.0,-17
COc1ccc(OCC(=O)Nc2ccc3c(c2)nc(CCNC(C)=O)n3C)cc1,1,?,i,3,4.1,2,-2,6,-0.2,-2
CC(=O)N(C)c1ccc(N=Nc2c(C)[nH]n(C(N)=S)c2=O)cc1,0,-0.3,i,3,-0.4,/,-1,7,2.0,-8
COc1ccc(-n2c(=S)[nH]c3cc(C(=O)O)ccc3c2=O)cc1,5,6.3,i,-3,-2.0,13,10,9,-3.2,0
CC(C)=C[C@H]1C[C@H](C)[C@H]2CC[C@H](C)c3c(O[C@@H]4OC[C@@H](O)[C@H](O)C4O)c(O)c(C)c1c32 (stereo partly drawn),/,/,i,2,1.0,5,18,20,11,/
O=C(COC(=O)Cc1cn2ccsc2n1)Nc1nc2ccccc2s1,-1,1.9,/,-6,/,8,/,/,/,11
Cc1cn(-c2cc(C(=O)Nc3ccc(C)c(NC(=O)C(=O)c4c[nH]c5ccccc45)c3)cc(C(F)(F)F)c2)cn1,3,4.6,i,16,-1.2&-13,1,-5&2,1&13,-2.1&-4.6,27
COc1ccc(C[C@H]2c3cc(O)c(OC)cc3CC[N+]2(C)[O-])cc1O (stereo partly drawn),-11,0.3,i,0,2.4,95*,-1,-5,0.1,-11
CCCc1cc(C(=O)NCCc2ccc(OC)c(OC)c2)no1,-5,-2.6,i,0,-27,-10,0,-9,-2.8,0
C[C@H]1CN=C(N(C)C)N1CCc1ccccc1,/,/,i,0,-4.9,5,11,12,-3.1,/
COc1ccc(NC(=O)[C@@H]2CCCN2S(=O)(=O)c2cccc3cccnc23)cc1,/,/,/,-6,1.7,-11,-4,-6,1.9,/
O=C(Cc1c(F)cccc1Cl)Nc1ccccc1C(=O)N1CCCCC1,3,3.2,i,1,3.7,0,18,13,0.9,0

# ALR inh: what is marked active above
SMILES	RanGTP-Impb inh	FGF22 binding	AF4-AF9 inh	ALR inh	rRNA inh HTS	rRNA inh HTS OD600	rRNA inh HTS RFP
CCn1c(CCn2c3ccccc3c3ccccc32)n[nH]c1=S	0.8	/	/	88*	/	/	/
COc1ccc(C[C@H]2c3cc(O)c(OC)cc3CC[N+]2(C)[O-])cc1O (stereo partly drawn)	0.3	i	2.4	95*	-1	-5	0.1

# Additional structures.
SMILES,Calb FLC,RanGTP-Impb inh,FGF22 binding,Beta apoptosis,AF4-AF9 inh,ALR inh,rRNA inh HTS,rRNA inh HTS OD600,rRNA inh HTS RFP,T cruzi inh
CCOC(=O)C1=NNC2(c3ccc(C)cc3)C(=O)N(c3ccc(Cl)cc3)C(=O)C12 (stereo not drawn),-1,-1.8,i,/,-0.3,3,-24,-26,2.9,-8
C=CCn1c(COc2ccccc2F)nnc1SCC(=O)N1CC(=O)Nc2ccccc21,12,0.4,/,0,/,-4,/,/,/,16
COc1cc(/C=N/NC(=O)c2ccncc2)ccc1OC(=O)c1cc(OC)c(OC)c(OC)c1,7,-1.7,i,2,0.7,/,2,-3,0.1,-10
Cc1ccc(S(=O)(=O)C(C#N)c2nc3ccccc3nc2N2CCCC2)cc1 (stereo not drawn),12,-0.8,/,/,/,7,/,/,/,1
O=C(Nc1ccnn1C1CCN(C/C=C/c2ccc(F)cc2)CC1)C1CCCC1,14,2.5,i,-11,1.1,3,-7,4,-7.5,27
O=C(NCc1ccccn1)C(=O)NCC1OCCN1S(=O)(=O)c1ccc(Cl)cc1 (stereo not drawn),4,-1.5,i,-12,-1.7,0,25,12,3.0,-6
COc1ccc(-c2nn(-c3ccccc3)cc2C(=O)N2CCOCC2)cc1,-7,-2.5,/,/,/,-1,/,/,/,1
COc1ccc(C(C)=O)cc1CSc1nc(C)cc(C)n1,-17,-0.7,i,1,0.8,4,-10,-48,-7.7,0
CCOC(=O)Cc1csc(NC(=O)c2ccc3ncsc3c2)n1,116*,?,i,0,0.7,-1,-17,-8,1.4,-6
COc1cccc(CNCCO)c1OCc1ccccc1,31,-1.9,i,1,-0.9,/,13,7,-16,-2
CN(CCCN1CCCCC1)C(=O)c1cc(COc2ccc(F)cc2F)on1,-3,2.6,i,-5,1.4,-11,4,12,-1.0,10
CCCCc1cc(=O)oc2c(CN3CCN(C)CC3)c(O)ccc12,0,5.9,i,-1,-6.0,1,3,-1,-4.5,23
CN1CCC23c4ccccc4NC1C21CCN(C)C3Nc2ccccc21,-7,4.0,i,-1,-3.2,-37,8,18,-0.4,-15
O=C(Oc1cccc(NC(=O)c2ccco2)c1)c1cccc(S(=O)(=O)N2CCCCC2)c1,11,0.0,/,4,/,-1,/,/,/,0
CSc1ncccc1C(=O)OCC(=O)Nc1cc(C(F)(F)F)ccc1N1CCOCC1,4,2.7,/,-7,/,3,/,/,/,-2
O=[N+]([O-])c1ccc(/C=N/Nc2ncccc2[N+](=O)[O-])s1,1,-1.8,i,-38,-1.1,-19,8,15,3.6,-27
CC(C)OC(=O)c1cc2c(ccn2C)n1CC(=O)N(Cc1ccccc1)c1ccc(F)cc1,4,1.1,/,34,/,-4,/,/,/,39
COc1ccc(C(=O)Nc2cccc(S(=O)(=O)NC3=NCCCCC3)c2)cc1,/,/,i,-3,1.1,-1,-8,0,-1.3,/
COc1ccc(S(=O)(=O)N(C)CC(=O)NCCN2CCOCC2)cc1Cl,16,0.2,i,-5,1.7,-4,6,6,0.5,6
CC(O)C(NS(=O)(=O)c1ccc(Cl)cc1)C(=O)OCc1cc([N+](=O)[O-])cc2c1OCOC2 (stereo not drawn),4,2.0,i,3,7.3,-3,-9,-12,0.0,5
CN(C)c1ccc(NC(=O)c2sc(SCC(=O)Nc3nccs3)nc2N)cc1,3,3.9,/,-3,/,12,/,/,/,10
C=CCN1C(=O)/C(=C\c2cccc(OC(=O)c3ccco3)c2)SC1=S,0,-4.0,i,/,2.4,-4,/,/,/,-1
O=C(N/N=C1\CCSC1)c1cc(Cl)ccc1O,-6,-1.6,i,0,0.0,33,-38,-45,-7.9,-15
CC(C)c1ccc(NC(=O)CSc2nc(=O)n(CCN3CCOCC3)c3c2CCC3)cc1,0,1.0,i,/,2.6,99*,1,4,2.7,8
COc1ccccc1C(=O)NC(=O)CSc1nnnn1C,/,/,i,0,2.8,-3,9,10,-0.2,/
Cc1noc(NS(=O)(=O)c2ccc(NC(=O)C(C)C)cc2)c1C,-5,3.2,i,1,3.0,1,16,21,1.7,-19
CN(CC(=O)N1CCN(c2ccccc2)CC1)S(=O)(=O)c1cccs1,-9,3.2,i,-7,0.7,44,1,-2,-1.5,9
CCOC(=O)c1ccc(NC(=S)Nc2ccc(C)cc2)cc1,-26,0.1,i,/,0.6,-4,4,2,-2.0,-18
CC(=O)N1NC(=Nc2ccccc2)SC1(C)C,-1,?,i,8,1.4,98*,-3,-8,-2.1,-5
NC1=NC[C@H](Cc2ccc(O)cc2)N1CCC12CC3CC(CC(C3)C1)C2,106*,4.3,i,3,23,93*,-57,-80,-26,20
N#C/C(=C\c1ccc(C#N)cc1)C(=O)c1ccccc1,2,2.3,i,0,1.4,93*,4,-5,3.4,-1
CCCn1nc(NC(=O)c2cccs2)c2cc3cc(C)ccc3nc21,2,72*,i,10,-54,/,-13,-1,-5.5,32

# Assay outcomes deposited in PubChem BioAssay by Broad Institute.

# A portion of the library; the hit share may differ from the screen's.
